# D2 potentiator: positive allosteric modulators of human D2 dopamine receptor | DiscoveRx D2 beta-arrestin cells, luminescence, 90 min; 100% = 57 uM dopamine signal | potentiation, % (concentration not given with the values) | hit rate 0.23% among 360,000 | AID 624464; active = potentiation of 50% or more; inconclusive = 30% to 50%; inactive = 30% or less;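 also: compound concentration not given in the record; tested on top of an EC20 dose of dopamine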
#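 PathHunter D2 cells, attached overnight at 37 deg C, received compound in DMSO plus dopamine at EC20 (50 nM final) for 90 min at 37 deg C. Beta-arrestin recruitment was read as luminescence after 1 h with detection reagent at ambient temperature.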
# D2 agonist: activates the human D2 dopamine receptor | hit rate 0.084% among 360,000 | DiscoveRx PathHunter D2 beta-arrestin, luminescence, 90 min; 100% = 57 uM dopamine signal | AID 624465 | activation, % (concentration not given with the values); in the data active = activation above about 40%; inconclusive = about 15% to 40%; inactive = below about 15%; also: compound concentration not given in the record; the text of the record calls up to 30% inactive
#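 Agonist mode: compounds alone added to overnight-plated D2 PathHunter cells for 90 min at 37 C, with 57 uM final dopamine (EC100) defining full response. Beta-arrestin recruitment detected by chemiluminescent reagent, read after 1 h at ambient temperature.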
# TRPML1 blocker: human mucolipin-1 channel inhibition; Q9GZU1; TRPML1-inducible cells, Ca2+ dye fluorescence, FDSS; active compounds read low; inhibition of EC80 agonist-evoked calcium signal; activity change, negative = inhibition, % (no concentration beside the values); hit rate 0.02% among 390,000; in the data active means activity change below about -50%; inconclusive means about -30% to -50%; inactive means above about -30%;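 also: stimulus is agonist 54-4 at its EC80 concentration; % is scaled to controls: 0 for no effect and ±100 for the full control effect; compound concentration not given in the record; the text of the record puts the active cut at -80%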
#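 TRPML1-DL cells, Tet-induced overnight (~16 h, 37 °C) at 1,500 cells/well, were loaded with Ca8 no-wash dye plus quencher for 45-90 min at room temperature. Compounds were pinned during FDSS kinetic reading; agonist 54-4 at EC80 (4 uM final) then added.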
# TRPML1 ag: agonists of human TRPML1 channel; Q9GZU1; TRPML1-expressing cells, Ca2+ dye fluorescence, FDSS; host cell line not named in the record; reference of the full effect not given here; activation, % (test concentration not listed); hit rate 0.12% among 410,000; AID 624414; in the data active = activation above about 50%; inconclusive = about 30% to 50%; inactive = below about 30%; also: 0% is about no effect; the text of the record puts the active cut at 80%
#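 In this qHTS format, compounds were pin-transferred onto Ca8-dye-loaded TRPML1-DL cells induced with Tet overnight, and intracellular Ca2+ fluorescence was recorded kinetically for 110 s after a 10 s baseline. A subsequent 4uM final 54-4 (EC80) addition followed by a second 110 s read served as the antagonist phase.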
# PINK1 modulator: PINK1 expression modulation; PINK1 immunofluorescence, high-content cytometry, 24 h; Potency, µM (doses to about 76.6 µM), inactives show at the top dose activation (PINK1 increase), hits mostly activators; hit rate 0.2% among 410,000; AID 624263; active = well fitted activation curve with a large enough effect; inconclusive = small, poorly fitted or top-dose-only effect; inactive = flat fitted curve, though single readings scatter; cell line not stated here;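 also: potency is read from the fitted curve at half-maximal effect; % of control where 0% means no effect; nearly all actives have a fitted effect of over 65% in size; a mitochondrial uncoupler was the plate control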
#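 PINK1 protein level read as immunofluorescence by microplate cytometer in a fixed, stained stable cell line after 24 h exposure to five compound concentrations, with CCCP as control.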
# Six1-Eya2 inh: Six1/Eya2 interaction inhibition; AlphaScreen GST-Six1/His-Eya2 binding, biochemical; active compounds read low; control for the full effect not named in the record; Q15475+O00167; AID 651725; activity change, % (test concentration not listed); hit rate 0.56% among 360,000; in the data active = activity change below about -65%; inconclusive = about -30% to -65%; inactive = above about -30%; also: % is scaled to controls: 0 for no effect and ±100 for the full control effect
# Target sequence (O00167 whole entry, looked up): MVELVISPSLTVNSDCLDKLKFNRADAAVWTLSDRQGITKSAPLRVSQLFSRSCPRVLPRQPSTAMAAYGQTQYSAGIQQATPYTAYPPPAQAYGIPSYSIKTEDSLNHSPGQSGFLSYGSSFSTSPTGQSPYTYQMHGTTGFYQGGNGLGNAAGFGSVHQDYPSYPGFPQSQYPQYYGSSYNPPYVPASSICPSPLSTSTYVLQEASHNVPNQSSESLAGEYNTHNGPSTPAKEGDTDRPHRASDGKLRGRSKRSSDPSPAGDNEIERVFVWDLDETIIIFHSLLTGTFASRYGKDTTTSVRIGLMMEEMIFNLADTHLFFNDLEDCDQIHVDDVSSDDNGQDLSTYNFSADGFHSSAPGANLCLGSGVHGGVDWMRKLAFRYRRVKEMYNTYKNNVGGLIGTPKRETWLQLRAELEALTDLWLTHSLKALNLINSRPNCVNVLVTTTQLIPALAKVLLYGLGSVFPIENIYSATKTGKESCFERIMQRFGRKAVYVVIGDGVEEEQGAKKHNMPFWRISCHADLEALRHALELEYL
# Target sequence (Q15475 whole entry, looked up): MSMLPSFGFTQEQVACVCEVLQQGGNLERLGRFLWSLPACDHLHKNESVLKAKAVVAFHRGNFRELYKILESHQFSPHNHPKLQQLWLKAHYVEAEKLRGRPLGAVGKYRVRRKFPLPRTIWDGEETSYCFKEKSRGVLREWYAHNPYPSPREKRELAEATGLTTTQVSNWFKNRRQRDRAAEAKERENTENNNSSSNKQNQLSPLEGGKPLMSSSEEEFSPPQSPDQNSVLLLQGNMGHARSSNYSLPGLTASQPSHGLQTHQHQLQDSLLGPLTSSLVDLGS
#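 GST-Six1 + His-Eya2 (5X stock: 250/500 nM); Tris pH 8.0, 300 mM NaCl, 0.05% BSA, 0.02% Tween 20; GSH donor/Ni acceptor beads; 1 h 37 °C dark; AlphaScreen readout.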
# Numbers without * were called inactive; ? = inconclusive; · = no result given; & = joins results of further samples; [ ] = dose if it differs, or a comment.
Molecule	D2 potentiator	D2 agonist	TRPML1 blocker	TRPML1 ag	PINK1 modulator	Six1-Eya2 inh
NS(=O)(=O)c1ccc(NC(=S)NCc2cccc(Cl)c2)cc1	-9	5.0	-4	0.0	24%	-4
CC(C)(CSc1nncn1/N=C/c1ccco1)NS(=O)(=O)c1ccc(Cl)cc1	8	-0.9	54	0.0	-0.5%	-12
Cc1ccc(C)c(C(=O)COc2ccccc2[N+](=O)[O-])c1	-2	0.1	-19	2.1	2.8%	7
CCOC(=O)N1CCN(C(=O)C(NS(=O)(=O)c2cccc3nsnc23)c2ccccc2)CC1 (stereo unspecified)	-5	0.5	-6	-0.6	2.9%	3
CCc1cccc(C)c1NC(=O)Cn1c(=O)cc(C)c2c(C)nn(-c3cccc(F)c3)c21	·	·	-2	0.7	0.7%	·
Cc1ccc(-n2c(=S)[nH]c3c(oc4ccccc43)c2=O)cc1C	-7	-2.0	10	0.3	-0.4%	3
COc1cc2c(cc1NC(=O)C(C)Sc1nc3ccccc3n1C)oc1ccccc12 (stereo unspecified)	-17	1.2	2	-0.2	-1.8%	6
O=C(Nc1ccccc1C1CC1)c1cccs1	-32	-5.4	-9	-0.7	0.4%	13
CCCn1c(N)c(N(CCOC)C(=O)C2CCCC2)c(=O)[nH]c1=O	-3	-2.4	11	0.1	-1.5%	5
O=C(c1cccc(S(=O)(=O)N2CCCCCC2)c1)N1CCN(c2ccccc2F)CC1	-15	-0.2	23	0.8	-0.4%	4

# Another view of four compounds above:
SMILES: Cc1ccc(-n2c(=S)[nH]c3c(oc4ccccc43)c2=O)cc1C
  D2 potentiator: -7
  D2 agonist: -2.0
  TRPML1 blocker: 10
  TRPML1 ag: 0.3
  PINK1 modulator: -0.4%
  Six1-Eya2 inh: 3
SMILES: COc1cc2c(cc1NC(=O)C(C)Sc1nc3ccccc3n1C)oc1ccccc12 (stereo unspecified)
  D2 potentiator: -17
  D2 agonist: 1.2
  TRPML1 blocker: 2
  TRPML1 ag: -0.2
  PINK1 modulator: -1.8%
  Six1-Eya2 inh: 6
SMILES: O=C(Nc1ccccc1C1CC1)c1cccs1
  D2 potentiator: -32
  D2 agonist: -5.4
  TRPML1 blocker: -9
  TRPML1 ag: -0.7
  PINK1 modulator: 0.4%
  Six1-Eya2 inh: 13
SMILES: CCCn1c(N)c(N(CCOC)C(=O)C2CCCC2)c(=O)[nH]c1=O
  D2 potentiator: -3
  D2 agonist: -2.4
  TRPML1 blocker: 11
  TRPML1 ag: 0.1
  PINK1 modulator: -1.5%
  Six1-Eya2 inh: 5

# (listing goes on)
Molecule	D2 potentiator	D2 agonist	TRPML1 blocker	TRPML1 ag	PINK1 modulator	Six1-Eya2 inh
Clc1ccccc1Cc1noc(CN2CCN3CCCC3C2)n1 (stereo unspecified)	-15	-2.2	-11	-0.3	0.4%	0
CCN1CCN(C(=O)c2cc(S(=O)(=O)N3CC(C)CC(C)C3)ccc2Cl)CC1 (stereo unspecified)	2	-4.5	-4	-0.8	0.1%	-2
CCOc1cc(S(=O)(=O)n2cnc(C)c2)ccc1Cl	-2	1.6	-10	1.9	-1.2%	29
O=C(CCN1CCN(c2ccccc2)CC1)c1ccc(Cl)cc1	-14	4.4	-3	0.5	1.0%	-11
COC(=O)c1sccc1-n1cccc1C(=O)C(=O)Nc1ccc(F)cc1	-13	-1.0	5	-1.2	-2.4%	-11
CN1N=C2c3ccccc3CCC2C1c1ccc(Cl)cc1 (stereo unspecified)	-7	-5.0	-8	1.7	3.2%	4
COc1cc(NC(=O)NCc2ccco2)ccc1-c1ccc(NC(=O)NCc2ccco2)cc1OC	1	8.5	11	-0.4	11%	2
CC(OC(=O)Cc1n[nH]c(=O)c2ccccc12)C(=O)N(C)c1ccccc1 (stereo unspecified)	-6	-4.0	11	-0.3	-1.1%	3
COc1cc(NC(=O)c2cc3ccccc3o2)ccc1NC(=O)c1ccco1	-7	-4.5	17	1.1	3.9%	8
COc1ccc(NC(=O)c2cc(-c3ccccn3)nc3ccccc23)c(OC)c1	4	0.6	8	0.9	1.0%	-15
C[C@H]1CN([C@@H](C)CO)C(=O)Cc2cc(NC(=O)CCC(F)(F)F)ccc2O[C@H]1CN(C)S(C)(=O)=O	-4	-0.7	-6	-0.5	-0.4%	11
Fc1ccccc1N1CCN(c2nc(-c3cccs3)nc3ccccc23)CC1	1	-1.7	11	-0.1	2.2%	4
CC(=O)Nc1cc(-c2ccccc2)cn2c(-c3cccc(C(C)=O)c3)cnc12	-10	2.8	·	-0.5	1.1%	-20
CC(C)(C(=O)N1CCC1(C)C(=O)NC1Cc2ccccc2C1)c1ccccc1 (stereo unspecified)	-1	-1.2	·	-0.9	0.4%	3
COc1ccccc1CN1CC(C(=O)NCCc2ncccc2C)CCC1=O (stereo unspecified)	-5	-1.2	-13	1.5	3.6%	2
CCCCCNC(=O)C(=O)NCC(c1ccc2c(c1)OCO2)N1CCOCC1 (stereo unspecified)	·	·	-28	0.2	0.1%	·
Cc1ccc(N2CCN(S(=O)(=O)c3nnc(NC(=O)c4ccccc4)s3)CC2)cc1	-6	-6.3	6&-11	-0.5&0.4	1.0%&0.2%	1
NC(=O)C1C(c2ccccc2)=C1c1ccccc1	-7	-2.1	40	-0.9	-0.5%[38.3 µM]	5
Cc1ccc(-c2csc3nc(=O)c(C)nn23)cc1	-14	-1.2	5	-0.1	?	1
Cc1cc(-c2n[nH]c(=S)n2/N=C/C(Cl)=C/c2ccccc2)n[nH]1	-34	-6.6	16	0.5	15%	-13
COc1ccc(C(=O)/C=C/c2cn(CC(O)CN3CCOCC3)c3ccccc23)cc1 (stereo unspecified)	-15	2.9	26	4.1	-1.2%	-5
COc1cccc(NC(=O)CCN2C(=O)c3ccc([N+](=O)[O-])cc3C2=O)c1	?	?	8	0.0	3.0%	-10
O=C(Cc1ncc(C(F)(F)F)cc1Cl)Nc1ccc(F)cc1	-16	-3.2	9	1.1	-1.9%	1
O=C(NCc1cccs1)c1ccc2c(c1)OCCO2	5	-2.3	4	0.3	-0.5%[38.3 µM]	0
O=C(c1ccccc1)c1c(-c2ccccc2)[nH]n(-c2ccccc2)c(=O)c1=O	-7	-1.7	11	0.5	-0.2%	5
COc1cc(C2c3c(-c4cc(C)ccc4O)n[nH]c3C(=O)N2Cc2ccco2)cc(OC)c1OC (stereo unspecified)	·	·	-1	1.0	1.7%	·
CN(C(=O)COC(=O)c1ccccc1Nc1ccccc1)C1CCS(=O)(=O)C1 (stereo unspecified)	3	-3.5	30	3.3	2.4%	6
CN1C(c2ccccc2)=NO[C@]1(C)c1ccccc1	-7	-1.5	-9	2.2	-0.7%	4
CCCCOC(=O)c1sc2nc(C)cc(C)c2c1N	-2	3.2	-16	2.0	4.1%	36
Cc1ccc(NCc2nnc(SCC(=O)Nc3ncc(C)s3)n2CC2CCCO2)c(C)c1 (stereo unspecified)	-8	-1.5	9	-0.6	0.3%	-4

# Part of the list above, with two lines to a compound.
# Every second line gives: D2 potentiator | D2 agonist | TRPML1 blocker | TRPML1 ag | PINK1 modulator | Six1-Eya2 inh
O=C(Cc1ncc(C(F)(F)F)cc1Cl)Nc1ccc(F)cc1
    -16 | -3.2 | 9 | 1.1 | -1.9% | 1
CN1C(c2ccccc2)=NO[C@]1(C)c1ccccc1
    -7 | -1.5 | -9 | 2.2 | -0.7% | 4

# Continued.
Molecule	D2 potentiator	D2 agonist	TRPML1 blocker	TRPML1 ag	PINK1 modulator	Six1-Eya2 inh
O=[N+]([O-])c1ccc(CSc2nc3ncc(Br)cc3[nH]2)cc1	-16	-4.2	13	-1.1	3.6%	5
OCCNCc1cccc2ccccc12	-15	-3.7	7	1.8	0.2%	13
O=C(CN1CCN(C(c2ccccc2)c2ccccc2)CC1)N1CCOCC1	-6	-2.4	-4	-0.3	-3.5%[38.3 µM]	1
CC(C)(C)Nc1nc(Cl)nc(NCCN2CCOCC2)n1	-11	-0.8	16	2.9	0.0%	-6
O=C(COC(=O)CNC(=O)c1ccccc1)NC(=O)NC1CCCCC1	0	3.1	14	2.1	2.8%	3
O=C(Nc1ccccc1OC(F)F)c1ccc(F)cc1	-18	-4.5	-3	-0.3	1.2%	5
O=c1cc(CN2CCCCC2)nc(C2CC2)[nH]1	-4	-5.6	-7	-0.6	-2.3%	-10
CCOC(=O)c1ccc2ncc(C(=O)OCC)c(Nc3ccc(C)c(Br)c3)c2c1	·	·	22	5.9	0.1%	·
CCOC(=O)Cn1c(=O)c(-c2ccccc2N)nc2ccccc21	-7	-2.3	-11	-0.1	1.8%	5
COc1ccccc1N1C(=O)CC(Sc2n[nH]c(-c3cccc(C)c3)n2)C1=O (stereo unspecified)	-22	0.0	13	-1.1	1.8%	-8
C[C@H](NC(=O)c1ncn2c1C(=O)NC[C@@H]2C)c1ccccc1	1	-9.5	0	-0.4	1.0%	-20
CCN(CC)CCC#CC(O)(c1ccccc1)C1CCCCC1 (stereo unspecified)	-11	-2.2	-11	-0.2	-1.0%	-5
CCOC(=O)c1c(NC(=O)Cn2nnc(-c3ccccc3Cl)n2)sc(C)c1C	4	1.6	-19	1.7	1.4%	13
Cc1onc(-c2ccccc2Cl)c1C(=O)NCc1ccc2c(c1)cc(C)n2C	-8	-3.6	-7	3.9	0.5%	-11
CSc1ccc(S(=O)(=O)Nc2ccc(S(=O)(=O)Nc3ccc(C)cc3)cc2)cc1	7	1.7	11	1.9	3.2%[38.3 µM]	-1
Cc1cc(=O)[nH]c(N=N/C(=N/Nc2ccc(O)cc2)c2ccccc2)n1	-45	-9.5	-7	1.3	-1.1%	-27
COc1ccc(CCNC(=O)C(=O)NCC2OCCN2S(=O)(=O)c2ccccc2)cc1OC (stereo unspecified)	-2	-6.7	-4	-0.1	0.2%	-1
Cc1ccc(S(=O)(=O)NCC(=O)NCC(=O)N(C)Cc2ccc(Br)s2)cc1C	-20	-3.8	-4	-0.8	-0.1%	1
O=C(CCC1CCCC1)Nc1ccc(OCC(=O)N2CCOCC2)cc1	11	-1.0	4	0.0	-2.7%	4
Cn1c(-c2ccc3c(c2)OCO3)cc(=O)c2ccccc21	-27	-10	·	·	0.0%	-1
C[C@@H]1CN(Cc2nc(-c3cnccn3)no2)C[C@H](C)O1	0	4.5	13	0.6	-0.9%	1
C=CCn1c(SCc2ccccc2)nc2scc(-c3ccc(C)o3)c2c1=O	-5	0.3	-5	0.3	18%[38.3 µM]	1
COc1ccc(/C=N/NC(=O)c2cccc([N+](=O)[O-])c2)cc1OS(=O)(=O)c1ccccc1	-4	1.2	-7	0.2	3.4%	1
COc1ccccc1NC(=O)NCCN1C(=O)C2C3C=CC(C3)C2C1=O (stereo unspecified)	-3	-3.4	?	3.0	-1.1%	0
COc1cc(C2CC(=O)Oc3cc(C)cc(C)c32)cc(OC)c1OC (stereo unspecified)	·	-1.6	3	-0.5	-0.7%	1
COc1ccc(S(=O)(=O)N(CC(=O)O)c2ccc(C)cc2)cc1	-5	-0.9	-8	-0.5	4.6%[38.3 µM]	0
Cc1c(/C=N/NC(=O)C(NC(=O)c2ccc3c(c2)OCO3)C(C)C)c2ccccc2n1C (stereo unspecified)	-10	-3.2	-5	2.7	1.9%	3

# High-throughput results from PubChem.
